Compound activity from PubChem.
Lassa entry inh: inhibitors of Lassa virus binding or cell entry; Lassa virus pseudotype entry inhibition, cell reporter; control for the full effect not named in the record; Potency, µM (top dose mostly 37.9 µM), without a hit: at the top dose activity change, negative = inhibition, usual class: inhibitors; 300,000 compounds, 1.2% hits; active means well fitted inhibition curve with a large enough effect; inconclusive means small, poorly fitted or top-dose-only effect, or effect the other way; inactive means flat fitted curve, though single readings scatter; tested in HEK293 cells; further: on the % scale 0 is the no-effect control and ±100 the full control effect; nearly all actives have a fitted effect of over 50% in size; luciferase read-out
NS1 function inh: inhibitors of influenza NS1 protein function; S. cerevisiae slowed by influenza A NS1, growth recovery by OD600; 270,000 compounds, 0.4% hits; AID 2326; Potency, µM (highest dose often 46.1 µM), without a hit: top-dose activity, positive = more growth; active means well fitted rising curve with a large enough effect; inconclusive means small, poorly fitted or top-dose-only effect; inactive means no such curve, though single readings can be large or run the other way; further: nearly all actives have a fitted effect of over 50% in size
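Read-out: OD600 growth recovery of NS1-expressing budding yeast. Cells grown overnight at 30C in -URA glucose medium, washed, resuspended and diluted 1:100 in 2% galactose assay medium, pH 6.0. Same strain lacking NS1 served as positive control.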
Marburg entry inh: Marburg virus entry inhibition; Marburg virus pseudotyped entry inhibition, cell reporter; control for the full effect not named in the record; about a third of the inactives were read at about 46 µM; Potency, µM (titrated, usually from 37.8 µM), inactives show at the top dose activity change, negative = inhibition, hits mostly inhibitors; 300,000 compounds, 1.8% hits; active = well fitted inhibition curve with a large enough effect; inconclusive = small, poorly fitted or top-dose-only effect, or effect the other way; inactive = flat fitted curve, though single readings scatter; tested in HEK293 cells; about a fifth of its hits are not listed in these tables; further: on the % scale 0 is the no-effect control and ±100 the full control effect; luciferase read-out
Cruzain noTriton: blocks cruzain activity in detergent-free assay; P25779; purified cruzain, Z-FR-AMC fluorescence, no detergent; Potency, µM, inactives show max response, negative = inhibition, most hits filed as inhibitors; 200,000 compounds, 2.3% hits; AID 1476;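 further: plate controls were enzyme without inhibitor for no effect and buffer without enzyme for full effect; nearly all actives have a fitted effect of over 40% in size; top concentration of the series not given in the record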
Target sequence (P25779 123-467 limits assumed): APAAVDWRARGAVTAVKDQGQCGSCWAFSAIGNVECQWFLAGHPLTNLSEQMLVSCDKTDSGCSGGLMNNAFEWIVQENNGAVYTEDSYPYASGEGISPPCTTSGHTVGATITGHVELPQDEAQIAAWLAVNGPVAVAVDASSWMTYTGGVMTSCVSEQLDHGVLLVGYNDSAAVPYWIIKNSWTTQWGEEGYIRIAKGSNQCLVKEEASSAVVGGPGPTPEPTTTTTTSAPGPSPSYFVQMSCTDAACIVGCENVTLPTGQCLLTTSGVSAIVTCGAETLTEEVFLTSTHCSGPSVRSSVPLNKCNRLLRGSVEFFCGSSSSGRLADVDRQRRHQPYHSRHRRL
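Purified cruzain at 1.5 nM, pre-incubated 15 min with compound at room temperature in 100 mM sodium acetate pH 5.5, 5 mM DTT, 0.00005% Triton X-100. Reaction started with 2 uM Z-FR-AMC; AMC fluorescence increase over 60 s gives rate.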
SARS PLP yeast: inhibitors of SARS-CoV papain-like protease in yeast | S. cerevisiae expressing SARS-CoV PLpro, growth rescue; control for the full effect not named in the record | AID 485353 | Potency, µM (series often up to 32.9 µM), for inactives: at the highest dose activity, positive = growth rescue | 330,000 compounds, 0.19% hits; active means well fitted rising curve with a large enough effect; inconclusive means small, poorly fitted or top-dose-only effect; inactive means no such curve, though single readings can be large or run the other way; further: 0% is about no effect; nearly all actives have a fitted effect of over 55% in size; growth read by luminescence after 48 h
Cruzain Triton: blocks cruzain activity in presence of Triton detergent; P25779; Potency, µM, inactives show max response, negative = inhibition, actives largely listed as inhibitors; 200,000 compounds, 0.43% hits; purified cruzain, Z-FR-AMC fluorescence, 0.01% Triton;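 further: plate controls were neutral wells for no effect and buffer without enzyme for full effect; nearly all actives have a fitted effect of over 40% in size; top concentration of the series not given in the record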
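Read-out: AMC fluorescence (360 nm excitation, 450 nm emission), four reads over 2 min, first-to-third difference used. Conditions: cruzain 1.5 nM, Z-FR-AMC 2 uM, pH 5.5 acetate, 5 mM DTT, 0.01% Triton X-100.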
StopGo reporter: lowers the luciferase signal of an FMDV 2A StopGo reporter; human cells with a luciferase reporter of 2A StopGo recoding; control for the full effect not named in the record; Potency, µM (top dose mostly 57.9 µM), for inactives: top-dose signal change, negative = less light; 410,000 compounds, 1.2% hits; active = well fitted falling curve with a large enough effect; inconclusive = small, poorly fitted or top-dose-only effect; inactive = no such curve, though single readings can be large or run the other way; tested in HEK293T cells; further: on the % scale 0 is the no-effect control and ±100 the full control effect; nearly all actives have a fitted effect of over 45% in size; luciferase light after 4 h
RE007 growth inh: less growth of the S. pombe RE007 Vpr strain; S. pombe RE007 Vpr strain, BacTiter-Glo ATP luminescence, 24 h; control for the full effect not named in the record; Potency, µM (top dose mostly 92.2 µM), inactives show at the top dose activity change, negative = less growth; 360,000 compounds, 0.21% hits; active = well fitted falling curve with a large enough effect; inconclusive = small, poorly fitted or top-dose-only effect; inactive = no such curve, though single readings can be large or run the other way;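 further: on the % scale 0 is the no-effect control and ±100 the full control effect; nearly all actives have a fitted effect of over 50% in size; the assay follows cell death caused by Vpr and the record does not say whether a fall means rescue or toxicity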
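Fission yeast strain RE007, carrying one chromosomally integrated HIV-1 vpr copy, was seeded at OD 0.01 in PMG+AL medium with 23 nL pinned compound. After 24 h at 30 °C and 99% humidity, viability was read by BacTiter-Glo luminescence.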
* hit, by the source's call; ? = inconclusive; . = not tested or not shown; & = joins results of further samples; [ ] = remark or other dose. Unless noted, the call rests on the fitted dose curve; in most records, active means well fitted curve in the direction sought with a large enough effect; inconclusive means small, poorly fitted or top-dose-only effect, or another doubt; inactive means no such curve, though single readings can be large; an effect the other way counts as inactive or inconclusive. Potency means the concentration at half of the fitted maximal effect.

Below each SMILES – Lassa entry inh, NS1 function inh, Marburg entry inh, Cruzain noTriton, SARS PLP yeast, Cruzain Triton, StopGo reporter, RE007 growth inh
CC(NC(=O)C1CCC(CNc2c(N3CCOCC3)c(=O)c2=O)CC1)c1ccccc1 (stereo not given)
    ., 2.5%, -3.7%, -2.1%, 1.7%, -4.8%, -16.6%, -2.0%
CCn1cc([N+](=O)[O-])c(C(=O)N2N=C3/C(=C/c4cccs4)CCCC3C2c2cccs2)n1 (stereo not given)
    ?, 4.9%, -27.7%, 2.7%, 1.9%, -2.5%, -13.3%, -7.6%
Nc1ccc2oc(CCc3ccccc3)nc2c1
    ?, ?, ?, 1.9%, 4.0%, 3.2%, 0.0%, 10.7%
COc1cccc(CNc2nccn(-c3cc(C)cc(C)c3)c2=O)c1
    -4.5%[46.1 µM], ., ., 4.4%, ., -3.7%, -15.8%, .
CN(C(=O)c1ccccc1Cl)C1CCCCC1
    -1.9%, 3.8%, -2.4%, -3.3%, 6.3%, 6.5%, 13.4%, -9.7%
CCCOc1ccc(/C(O)=C2/C(=O)C(=O)N(c3ccccn3)C2c2ccc(OC)cc2)cc1C (stereo not given)
    -0.8%, ?, 2.8%[46.1 µM], ., 2.5%, ., 9.3%, -4.8%
Cn1c(NC(=O)c2ccccc2)c(-c2cccs2)c(=O)c2ccccc21
    -11.7%, ?, 2.3%, -9.5%, 5.0%, -0.4%, -0.8%, 16.8%
c1ccc(NC2=NCCS2)cc1
    ., 5.6%, ., ., -5.3%, ., 21.8%, 7.2%
Cc1ccc(OCCCCc2c(C)n[nH]c2C)cc1
    ., -17.5%, ., ., 11.6%, ., -10.8%, 1.1%
COc1ccc(-c2nc3c4ccccc4n(CC(=O)N4CCN(c5ccccc5F)CC4)c(=O)n3n2)cc1
    -2.2%[46.1 µM], ., ., 2.0%, ., -1.3%, 4.7%, .
CSc1ccccc1NC(=O)CN(C)Cc1c(O)ccc2ccccc12
    6.7%, 1.4%, -2.6%[46.1 µM], ., 3.4%, ., 3.2%, -20.4%
CCC(C)(C)n1nnnc1C(c1ccc(F)cc1)N1CCC(C(N)=O)CC1 (stereo not given)
    4.2%, -0.9%, -29.2%[46.1 µM], ., -0.3%, ., 18.9%, 9.3%
CC1(C)Cc2c(cnn2-c2cccc(F)c2)C(NC(=O)CSc2ccncc2)C1 (stereo not given)
    0.3%, -3.5%, -16.0%, ., 24.7%, ., ?, -9.3%
O=c1ccc(/C=C/c2ccccc2)nn1Cc1ccccc1
    ?, 6.1%, -1.3%[46.1 µM], -2.3%, -0.6%, -12.4%, -24.0%, -6.8%
Cc1ccc2c(c1)c1c(c(=O)n(Cc3ccccc3)c(=O)n1CC(=O)Nc1ccccc1F)n2C
    0.2%[46.1 µM], ., ., -4.9%, ., -0.8%, 0.1%, .
CC1CC(=O)N(CC(=O)Nc2ccc(F)cc2F)c2ccccc2S1(=O)=O (stereo not given)
    ?, -0.2%, 12.5%[46.1 µM], ., 14.7%, ., -8.7%, 3.9%
COc1cccc(-n2c(SCC(=O)NC3CCCCC3)nc3n[nH]c(C)c3c2=N)c1
    ?, 3.16µM*, ?, -3.5%, -3.7%, -11.5%, -18.8%, 13.1%
CCN1CCc2ccccc2C1
    ., 0.9%, ., ., 0.0%, ., -17.5%, -10.1%
CCN1CCc2c(sc(N)c2C(N)=O)C1
    3.1%, 2.4%, ?, -7.7%, 3.4%, -0.1%, -11.1%, 9.1%
COc1ccccc1NC(=O)Cn1c(O)c(N=NC(=O)c2ccccc2O)c2ccccc21
    ., 7.7%, ., ., -2.0%, ., ?, 14.5%
CCCc1cc(=O)[nH]c(SCc2nc(-c3ccc(C)cc3)no2)n1
    2.4%[46.1 µM], ., ., -3.1%, ., -3.1%, -11.7%, .
CCc1ccc(Nc2nc3ccccc3c3nnc(C)n23)cc1
    12.0%[46.1 µM], ., ., 25.5%, ., -14.4%, -17.0%, .
CCOc1ccc(N(CC(=O)NCCSc2ccccn2)S(C)(=O)=O)cc1
    -2.5%, -13.7%, 11.3%, -4.8%, 3.2%, 6.9%, -9.0%, -9.4%
CCCOC(=O)c1ccc(NC(=O)c2cn(CC)c3nc(C)ccc3c2=O)cc1
    ., -3.2%, ., -0.2%, 5.7%, 3.1%, ., .
O=C(NCCCc1nc2ccccc2n1Cc1ccccc1)C1CCCCC1
    0.3%[46.1 µM], ., ?, -6.9%, ., -6.1%, -26.4%, .
COc1cc(C(=O)NC2=NCCS2)ccc1OCc1c(C)noc1C
    -23.4%, -12.0%, 15.0%, -8.7%, -1.9%, -2.5%, 2.5%, 3.3%
CC1CCCC(NC(=O)CN2C(=O)c3cccnc3Oc3ccc(Cl)cc32)C1C (stereo not given)
    ., 0.5%, ., ., -11.4%, ., 27.7%, -20.6%
Clc1cccc(Nc2nc(N3CCOCC3)nc(N3CCOCC3)n2)c1
    ., 5.6%, ., ., 2.3%, ., -0.9%, 3.1%
O=C(NCC1CCOCC1)c1ccc2nc(Cc3cccc(Cl)c3)oc2c1
    ?, -4.3%, ?, ., -4.1%, ., 22.0%, -4.1%
COc1ccccc1NC(=O)CSc1ccc2nnc(CCNC(=O)c3ccccc3)n2n1
    7.4%, -1.7%, -12.6%, ., 25.5%, ., -20.0%, -13.6%
CN(C)/N=C/c1ccc(P(c2ccc(/C=N/N(C)C)o2)c2ccc(/C=N/N(C)C)o2)o1
    ?, ., ?, ., 0.5%, ., 16.6%, -5.0%
Cc1cc(C)c2c(N)c(C(=O)NC3CC3)sc2n1
    -0.4%, -25.5%, 6.3%, -0.4%, -2.6%, 1.3%, 21.1%, 4.4%
CCC1=NN(C(=O)CCc2ccccc2O)C(O)(C(F)(F)F)C1 (stereo not given)
    2.5%, 2.7%, 7.3%, -2.9%, -0.5%, -2.6%, -13.9%, 1.1%
CCCSc1oc(-c2ccco2)nc1S(=O)(=O)c1ccc(Cl)cc1
    11.5%[46.1 µM], ., -25.5%[46.1 µM], 1.3%, ., -25.5%, 2.6%, .
COc1ccc(-n2cnc3sc(-c4ccccc4)cc3c2=O)cc1
    ?, -21.2%, ?, ?, -0.4%, 3.8%, ., 10.8%
COc1ccc(OC)c(C2C(C(=O)c3cccs3)=C(O)C(=O)N2CCN2CCOCC2)c1 (stereo not given)
    ., 0.4%, ., ., -2.1%, ., 48.3%[activator], 5.1%
COc1ccc(OC)c(/C=C2\Oc3cc(OCC(=O)N4CCC[C@H]4C(=O)O)ccc3C2=O)c1
    ., ?, ., ., 1.4%, ., -16.0%, 12.9%
CCN(C(=O)CN1C(=O)c2ccccc2Sc2ccc(C(=O)OC)cc21)c1cccc(C)c1
    0.4%[46.1 µM], ., ., ?, ., 2.6%, 0.0%, .
Cc1cc(C)cc(NC(=S)Nc2ccc3cn[nH]c3c2)c1
    10.2%, -4.4%, -13.2%, 11.5%, 3.6%, -4.2%, 2.6%, -23.2%
O=C(Nc1cccc(Cl)c1)c1ccc(F)c(S(=O)(=O)N2CCN(c3ccccn3)CC2)c1
    ?, 5.8%, ?, -27.2%, -19.4%, -2.7%, ?, -11.5%
COc1ccc2[nH]cc(CCNS(=O)(=O)c3ccc(F)cc3)c2c1
    -0.6%, 2.1%, -12.3%[46.1 µM], ., 0.2%, ., -20.8%, 1.2%
Cc1ccc(C)c(N2CCN(C(=O)Cc3c(C(=O)O)c(C)cn3C)CC2)c1
    8.4%[46.1 µM], ., ., -5.7%, ., -0.2%, -0.6%, .
Cc1cc([N+](=O)[O-])ccc1NC(=S)NC(=O)Cc1ccccc1
    3.2%, -53.9%, -10.0%, -13.9%, -14.9%, -6.4%, -6.9%, -27.9%
COc1ccc(-c2nc3ccccc3c(=O)n2CCOc2c(C)cccc2C)cc1
    3.0%, -8.9%, 9.2%[46.1 µM], ?, 7.4%, -0.8%, -27.5%, 0.7%
CC(OC(=O)c1ccccc1OCc1ccc(Cl)cc1)C(N)=O (stereo not given)
    ., -2.0%, ?, ., -1.7%, ., -29.6%, 5.3%
CCOC(=O)CCc1c(C)c2ccc(OCC(=O)OC(C)C)cc2oc1=O
    11.2%, -48.7%, 4.9%, 6.7%, -8.2%, -15.2%, 11.2%, 0.1%
O=C(Nc1ccc(Br)cc1)c1cccc2c1C(=O)N(C1CCCCC1)C2
    8.7%[46.1 µM], -5.6%, 0.3%[46.1 µM], ., -4.3%, ., 15.4%, -0.2%
COc1ccc(C(=O)Nc2nc(N)n(-c3ccccc3)n2)cc1
    17.9%, 3.2%, -18.5%, -1.5%, 6.1%, 0.0%, 15.9%, 2.0%
CCOC(=O)C1CCN(c2ncnc3c2[nH]c2cccc(OC)c23)CC1
    -8.0%, -8.8%, -8.3%, -11.2%, -2.8%, -17.4%, ?, -1.5%
Cc1cccc(N2CCN(C(=O)C3CCN(C(=O)c4cc5sccc5n4C)CC3)CC2)c1C
    ., ., -19.1%[46.1 µM], ?, ., -7.6%, ?, .
COc1ccc(OCC(=O)Nc2ccc(NC(=O)c3cccs3)c(OC)c2)cc1
    11.5%, ., ?, ., 1.0%, ., 4.6%, 26.9%
CCC(C)Sc1cc(C)c(C#N)c2nc3ccccc3n12 (stereo not given)
    ?, -15.8%, -1.9%, -9.7%, -20.2%, -8.0%, -26.1%, -8.2%
Cc1oc2c(c1C(=O)NCc1cccnc1)C(=O)c1ccccc1C2=O
    ., 2.0%, ., ., -2.8%, ., 3.16µM*, -13.4%
O=C(CSc1nnc(-c2ccccc2)c(-c2ccccc2)n1)N1CCOCC1
    -7.5%, 9.5%, 25.1%&25.1%&25.1%, 0.1%, 1.8%, 3.2%, -26.4%, 1.8%
O=C(Nc1nccs1)c1ccc(-c2ccc(Cl)cc2)o1
    ., 0.7%, ., ., 0.9%, ., 15.3%, -23.8%
CCc1ccc(NC(=S)N(CCCN2CCOCC2)Cc2ccco2)cc1
    22.8%[46.1 µM], -2.7%, 1.3%[46.1 µM], ., 3.2%, ., -4.1%, -14.9%
Cn1c(SCC(=O)Nc2sccc2C#N)nnc1-c1ccccc1
    10.6%, 6.8%, 9.0%, -12.4%, 4.7%, -3.0%, 14.0%, -17.5%
